Assay outcomes: PubChem, National Center for Advancing Translational Sciences (NCATS)
D2 ag = agonists of human D2 dopamine receptor (beta-arrestin). activation, % (test concentration not listed). AID 624465. P14416. DiscoveRx PathHunter D2 beta-arrestin, luminescence, 90 min; 100% = 57 uM dopamine signal. 360,000 compounds, 0.084% hits; in the data active = activation above about 40%; inconclusive = about 15% to 40%; inactive = below about 15%; further: compound concentration not given in the record; the text of the record calls up to 30% inactive
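DiscoveRx PathHunter D2 beta-arrestin cells (2,100/well) attached overnight, then compound-stimulated 90 min at 37 C in HBSS/10 mM HEPES/0.1% Tween-20 buffer; beta-galactosidase complementation read by luminescence after 1 h at ambient temperature. Dopamine 57 uM final (EC100) as control.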
D2 potentiator = potentiates the human D2 dopamine receptor allosterically; P14416; DiscoveRx D2 beta-arrestin cells, luminescence, 90 min; 100% = 57 uM dopamine signal; potentiation, % (concentration not given with the values); 360,000 compounds, 0.23% hits; AID 624464; active = potentiation of 50% or more; inconclusive = 30% to 50%; inactive = 30% or less;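 further: tested on top of an EC20 dose of dopamine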
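D2 cells co-treated with compound plus 50 nM dopamine (EC20) for 90 min at 37 deg C to detect potentiation. Beta-arrestin recruitment was read as enzyme-fragment luminescence after 1 h at ambient temperature. Full response was set by 57 uM dopamine.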
TRPML1 blocker = blocks the human TRPML1 channel; AID 624415; 390,000 compounds, 0.02% hits; TRPML1-inducible cells, Ca2+ dye fluorescence, FDSS; active compounds read low; inhibition of EC80 agonist-evoked calcium signal; Q9GZU1; activity change, negative = inhibition, % (no concentration beside the values); in the data active means activity change below about -50%; inconclusive means about -30% to -50%; inactive means above about -30%;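 further: stimulus is agonist 54-4 at its EC80 concentration; on the % scale 0 is the no-effect control and ±100 the full control effect; compound concentration not given in the record; the text of the record puts the active cut at -80%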
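Calcium fluorescence in TRPML1-DL cells induced overnight with Tet: a 110 s read after compound pin addition, then a 110 s antagonist read after challenge with 54-4 at 4 uM final (EC80).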
Six1-Eya2 blk = Six1/Eya2 interaction inhibition; Q15475+O00167; AlphaScreen GST-Six1/His-Eya2 binding, biochemical; active compounds read low; control for the full effect not named in the record; activity change, % (concentration not given with the values); 360,000 compounds, 0.56% hits; in the data active = activity change below about -65%; inconclusive = about -30% to -65%; inactive = above about -30%; further: on the % scale 0 is the no-effect control and ±100 the full control effect
Target sequence (O00167 whole entry, looked up): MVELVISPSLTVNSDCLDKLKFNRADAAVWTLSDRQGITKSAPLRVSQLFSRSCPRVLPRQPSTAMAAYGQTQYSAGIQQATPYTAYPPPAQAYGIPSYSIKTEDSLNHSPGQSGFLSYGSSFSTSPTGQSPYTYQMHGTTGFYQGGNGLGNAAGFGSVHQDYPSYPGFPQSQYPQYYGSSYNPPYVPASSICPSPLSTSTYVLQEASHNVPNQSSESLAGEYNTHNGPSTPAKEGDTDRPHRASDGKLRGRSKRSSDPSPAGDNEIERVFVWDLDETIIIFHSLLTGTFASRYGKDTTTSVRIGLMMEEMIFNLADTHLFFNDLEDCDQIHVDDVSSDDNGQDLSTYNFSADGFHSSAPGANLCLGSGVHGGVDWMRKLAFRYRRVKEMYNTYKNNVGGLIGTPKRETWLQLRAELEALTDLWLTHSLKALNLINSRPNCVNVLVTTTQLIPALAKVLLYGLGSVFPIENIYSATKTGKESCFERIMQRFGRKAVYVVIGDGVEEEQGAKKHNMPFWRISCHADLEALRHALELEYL
Target sequence (Q15475 whole entry, looked up): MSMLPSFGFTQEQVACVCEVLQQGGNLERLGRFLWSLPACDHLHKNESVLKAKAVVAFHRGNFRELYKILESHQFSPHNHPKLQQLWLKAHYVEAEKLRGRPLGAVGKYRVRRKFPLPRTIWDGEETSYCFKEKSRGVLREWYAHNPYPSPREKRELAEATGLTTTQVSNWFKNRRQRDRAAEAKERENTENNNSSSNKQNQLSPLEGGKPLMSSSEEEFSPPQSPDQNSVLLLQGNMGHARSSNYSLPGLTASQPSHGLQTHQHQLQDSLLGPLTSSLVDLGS
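AlphaScreen luminescence read after one hour at 37 °C in darkness. Pin-transferred compounds met GST-Six1 and His-Eya2 protein (5X stock 250 nM/500 nM) plus glutathione donor and Ni-chelate acceptor beads (5X, 50 ug/mL).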
TRPML1 ag = activates the human TRPML1 channel; Q9GZU1; TRPML1-expressing cells, Ca2+ dye fluorescence, FDSS; host cell line not named in the record; reference of the full effect not given here; activation, % (test concentration not listed); 410,000 compounds, 0.12% hits; AID 624414; in the data active = activation above about 50%; inconclusive = about 30% to 50%; inactive = below about 30%; further: 0% is about no effect; the text of the record puts the active cut at 80%
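Calcium fluorescence on an FDSS kinetic reader gave the read-out. Tet-induced TRPML1-DL cells were plated overnight, dye-loaded (Ca8 with quencher, 45-90 min, room temperature, dark), then read 110 s after compound addition, and again 110 s after 4uM final 54-4 (EC80).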
PINK1 modulator = modulators of PINK1 expression; PINK1 immunofluorescence, high-content cytometry, 24 h; Potency, µM (top dose mostly 76.6 µM), for the others: top-dose activation (PINK1 increase), hits mostly activators; 410,000 compounds, 0.2% hits; AID 624263; active = well fitted activation curve with a large enough effect; inconclusive = small, poorly fitted or top-dose-only effect; inactive = flat fitted curve, though single readings scatter; cell line not stated here;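 further: potency means the concentration at half of the fitted maximal effect; % of control where 0% means no effect; nearly all actives have a fitted effect of over 65% in size; a mitochondrial uncoupler was the plate control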
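PINK1 protein level read as immunofluorescence by microplate cytometer in a fixed, stained stable cell line after 24 h exposure to five compound concentrations, with CCCP as control.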
* marks the source's active call; other numbers are inactive results; ? = inconclusive; · = no result given; [ ] = remark or other dose.

SMILES | D2 ag | D2 potentiator | TRPML1 blocker | Six1-Eya2 blk | TRPML1 ag | PINK1 modulator
CCN(CC)C(=O)CN(C)S(=O)(=O)c1cccc2nsnc12 | -2.4 | -10 | -3 | 3 | -0.5 | 2.7%
Cc1ccc(SCCNC(=O)c2ccc(CN3CCOCC3)cc2)cc1 | -0.2 | -9 | -6 | 0 | -0.4 | 0.8%
COc1ccc(C(=O)C(C)OC(=O)CCN2C(=O)C3CC=CCC3C2=O)cc1 (configuration not stated) | -3.1 | -7 | 1 | 4 | 0.2 | 1.3%
CCOC(=O)N1CC(=O)Nc2ccc(Br)cc2C1c1ccccc1 (configuration not stated) | 1.0 | 1 | 21 | 11 | 0.8 | 1.9%
Cc1cc(C)c(NC(=O)c2ccc3nccnc3c2)c(C)c1 | 3.7 | -2 | 0 | -6 | -0.2 | 2.0%
CS(=O)(=O)Nc1ccc(C2=NN(C(=O)c3ccco3)C(c3ccccc3F)C2)cc1 (configuration not stated) | -0.6 | -8 | 7 | -6 | 0.8 | 2.6%
CCC(=O)N1CCc2cc(Br)cc(S(=O)(=O)CCC(=O)N(CC)CC)c21 | 3.1 | 6 | -8 | -15 | -0.8 | -0.1%
Cc1cccc(NC(=O)CSC(N)=O)c1C | -6.5 | -8 | -9 | 1 | -0.1 | 2.0%
COc1ccccc1C(=O)OCC(=O)Nc1cccc(S(=O)(=O)NC2=NCCCCC2)c1 | 0.6 | -7 | 3 | -4 | 0.9 | 3.1%
O=C(COC(=O)C12CC3CC(CC(Br)(C3)C1)C2)Nc1ccc2[nH]c(=O)[nH]c2c1 | -1.4 | -14 | -12 | 15 | -0.3 | 0.6%
Cc1nnsc1S(=O)c1ccc(Cl)c(Cl)c1 (configuration not stated) | 0.1 | -11 | -9 | -5 | 1.4 | -1.0%
O=C(Nc1cc(C(F)(F)F)ccc1N1CCOCC1)c1n[nH]c(=O)c2ccccc12 | -4.0 | 2 | 14 | 4 | -0.7 | 4.3%
O=C(NCCc1ccccc1)C1CCN(c2nc3ccccc3nc2C(F)(F)F)CC1 | · | · | 7 | · | -0.8 | 1.0%
CCOC(=O)C1=C[C@@H](C(C)(C)C)N(S(=O)(=O)c2ccc([N+](=O)[O-])cc2)[C@H]1c1ccccc1 | 7.4 | 8 | · | -21 | -0.3 | -0.2%
CCOC(=O)c1c(C)c(C(=O)NCc2ccccn2)c(C)n1C | -1.2 | -3 | 11 | -7 | 2.8 | ?
COc1cc(CN(C)C(=O)C(=O)c2c[nH]c3ccccc23)ccc1O | -0.5 | -19 | -16 | 1 | 1.3 | -1.1%
CN(CC(=O)Nc1ccc(Cl)cc1)C1=NS(=O)(=O)c2ccccc21 | 5.1 | -3 | 13 | -2 | 2.5 | 8.7%
O=C(CNS(=O)(=O)c1ccccc1)OCC(=O)c1ccc(Br)cc1 | -5.3 | -12 | 5 | 7 | 0.9 | 3.9%
C=C(NC(=O)C(=C)NC(=O)c1csc(C2=NC3c4csc(n4)C4NC(=O)c5csc(n5)C(C(C)(O)C(C)O)NC(=O)C5CSC(=N5)/C(=C/C)NC(=O)C(C(C)O)NC(=O)c5csc(n5)C3(CC2)NC(=O)C(C)NC(=O)C(=C)NC(=O)C(=C)NC(=O)C(C(C)C)NC2C=Cc3c(C(C)O)cc(nc3C2O)C(=O)OC4C)n1)C(N)=O (configuration not stated) | -2.4 | -6 | 26 | 6 | 0.1 | ?
CCC(=O)Nc1nc2ccccc2n1CCN1CCOCC1 | -0.7 | -11 | 7 | 7 | 0.5 | 1.0%
CC(C)(C)C(=O)Cn1c(NCCCO)nc2ccccc21 | -2.5 | -5 | -5 | -5 | -0.1 | 2.0%
O=C(NCc1cccs1)c1cc(S(=O)(=O)N2CCOCC2)c(Cl)cc1Cl | -1.4 | -15 | -4 | 11 | 0.0 | -0.6%
CCCc1cc(=O)oc2cc(OCc3cccc(OC)c3)c(Cl)cc12 | -4.0 | -1 | -14 | 2 | 0.2 | 5.7%
Cc1ccc(NC(=O)CN(C)C(=O)CSc2ccccc2F)cc1 | -0.9 | -30 | 8 | -4 | 0.0 | 1.5%
Cc1cccc(-n2c(SCc3ccc(C#N)cc3)nnc2-c2c[nH]c3ccccc23)c1 | 0.1 | -1 | 19 | -14 | 0.2 | 6.0%
COCCNC(=O)Cn1cnc2c(cnn2-c2ccc(OC)cc2)c1=O | -1.3 | -7 | 17 | 4 | 1.5 | 1.4%
CN(C(=O)COC(=O)/C=C/c1ccc2c(c1)OCO2)c1c(N)n(Cc2ccccc2)c(=O)[nH]c1=O | -2.5 | -19 | 7 | 0 | -0.1 | -0.6%
CCCCNC(=O)c1cccnc1SCC(=O)Nc1ccccc1OC | -5.1 | -2 | 8 | -3 | 0.0 | 1.1%
Cc1cc(C)n(-c2ccc(C(=O)NC3=NCCS3)cc2)n1 | -0.9 | -7 | -6 | 2 | 0.6 | 1.0%[38.3 µM]
CC1CCN(C(C(=O)Nc2ccc3c(c2)OCO3)c2ccccc2)CC1 (configuration not stated) | 0.0 | -6 | 0 | -12 | 0.5 | 7.4%
COc1ccc(C(C2C(=O)CC(C)(C)CC2=O)C2C(=O)CC(C)(C)CC2=O)cc1COCC(F)(F)F | -2.9 | 5 | -1 | 6 | -1.3 | -1.1%
COc1cc(/C=N/NC(=O)c2cnccn2)cc(OC)c1OC | -4.3 | -6 | 12 | -10 | -0.1 | 0.1%
CC(C)N(C(=O)Cn1c(SCC(=O)NCc2ccc3c(c2)OCO3)nc2ccccc21)C(C)C | -4.3 | -9 | 35 | -2 | -0.1 | 5.7%
CC(OC(=O)c1ccc(Cl)cc1)C(=O)NCC1CCCCC1 (configuration not stated) | -4.7 | -6 | 8 | 6 | 0.6 | -0.4%
CC1=C(C(=O)Nc2cc(Cl)ccc2C)C2(CCCCC2)OC1=O | · | · | 31 | · | 0.1 | -0.1%
O=C(CN1C(=O)/C(=C/c2ccc(C(F)(F)F)cc2)Sc2ccccc21)NCCCN1CCOCC1 | -0.3 | -16 | -6 | -2 | -0.2 | -1.3%
C[C@@H]1CN([C@H](C)CO)C(=O)CCCn2nncc2CO[C@H]1CN(C)Cc1ccc(-c2ccccc2)cc1 | -4.3 | 6 | 5 | 8 | -0.5 | 3.4%
O=C(Cn1cc(C(F)(F)F)ccc1=O)N/N=C/c1cccc(Cl)c1Cl | -4.7 | -4 | -3 | -2 | 0.2 | 1.1%
N#CCCN1CCN(C(=S)c2ccc(-c3ccc(Cl)cc3)o2)CC1 | -1.5 | 7 | 74 | ? | 0.0 | 3.1%
O=C(OCn1nnc2ccccc2c1=O)C1CCCCC1 | -2.2 | -2 | 41 | 10 | 0.7 | 1.1%
Nc1nonc1-n1nnc(C(=O)N/N=C/c2ccc(Cl)cc2Cl)c1CN1CCCC1 | -0.6 | -6 | 3 | 9 | 0.3 | -1.0%
Cc1cc(C(=O)NNC(=O)COc2ccccc2Cl)n[nH]1 | -3.7 | -6 | 18 | -1 | 0.0 | -1.8%
CN(Cc1ccc2nonc2c1)Cc1nc(Cc2cccc(F)c2)no1 | -1.4 | -1 | -13 | 26 | 1.5 | -0.9%
CS(=O)(=O)N1CCN(c2ccc(NC(=S)NC(=O)c3ccccc3[N+](=O)[O-])cc2)CC1 | 3.0 | -13 | -4 | 3 | 7.1 | -0.9%
CCCCN(C(=O)c1cccc(N2C(=O)c3ccccc3C2=O)c1)c1c(N)n(CCCC)c(=O)[nH]c1=O | -1.8 | -4 | -9 | -1 | -0.5 | -0.5%

One compound at a time (already shown). Values in the order: D2 ag	D2 potentiator	TRPML1 blocker	Six1-Eya2 blk	TRPML1 ag	PINK1 modulator
O=C(CN1C(=O)/C(=C/c2ccc(C(F)(F)F)cc2)Sc2ccccc21)NCCCN1CCOCC1 as listed: -0.3	-16	-6	-2	-0.2	-1.3%
N#CCCN1CCN(C(=S)c2ccc(-c3ccc(Cl)cc3)o2)CC1 as listed: -1.5	7	74	?	0.0	3.1%
Cc1cc(C(=O)NNC(=O)COc2ccccc2Cl)n[nH]1 as listed: -3.7	-6	18	-1	0.0	-1.8%
Nc1nonc1-n1nnc(C(=O)N/N=C/c2ccc(Cl)cc2Cl)c1CN1CCCC1 as listed: -0.6	-6	3	9	0.3	-1.0%
CCCCN(C(=O)c1cccc(N2C(=O)c3ccccc3C2=O)c1)c1c(N)n(CCCC)c(=O)[nH]c1=O as listed: -1.8	-4	-9	-1	-0.5	-0.5%

The results go on:
SMILES | D2 ag | D2 potentiator | TRPML1 blocker | Six1-Eya2 blk | TRPML1 ag | PINK1 modulator
Cc1nc(-c2cccc(NC(=O)C3CCCCC3)c2)cs1 | -27 | -15 | -20 | 6 | 0.1 | 2.5%
C[C@@H]1CN([C@H](C)CO)C(=O)CCCn2nncc2CO[C@@H]1CN(C)S(=O)(=O)c1ccccc1C#N | -7.9 | -3 | 14 | 3 | -0.3 | 0.7%
Cc1cccc2sc(N(CCCN(C)C)C(=O)CCc3ccccc3)nc12 | -1.0 | -38 | 10 | -20 | 1.2 | -5.7%
Cc1cc(C(=O)N2CCN(c3ccccc3O)CC2)c(C)o1 | 11 | 5 | -10 | -2 | -0.3 | 3.6%
O=C(O)C1CC(=O)N(c2ccc(F)c(F)c2)C1 (configuration not stated) | 2.3 | -8 | -15 | 4 | 0.8 | -2.4%
O=C1CC(c2ccccc2)CC(O)=C1C=NCc1ccncc1 (configuration not stated) | 4.3 | -4 | 5 | 11 | 0.6 | -0.4%
CCOC(=O)c1nnn(-c2nonc2N)c1COc1ccc(F)cc1 | 8.2 | -3 | 13 | 3 | 0.3 | ?
O=C(CSc1nc2ccccc2c(=O)n1Cc1ccccc1)NCc1ccco1 | 1.8 | -7 | 0 | 1 | 0.0 | 5.6µM*
CN(C)c1ccc(NC(=O)CSC2=Nc3ccccc3C3=NC(CCC(=O)NCc4cccs4)C(=O)N23)cc1 (configuration not stated) | · | · | 29 | · | 1.3 | 1.6%
Cc1nc([N+](=O)[O-])c(N2CCN(Cc3ccccc3)CC2)n1Cc1ccccc1 | -1.9 | -24 | 2 | -8 | 0.4 | 0.4%
O=C(O)CCc1ccc(-c2cccs2)n1Cc1ccco1 | 0.1 | 6 | 3 | -7 | -0.6 | 0.0%[38.3 µM]
CCCCn1c(SCC(=O)Nc2sc3c(c2C(N)=O)CCC3)nnc1-c1ccccc1 | -2.4 | -32 | -12 | -27 | 0.0 | 0.6%
COCCCN(C(=O)CCOc1ccc(C)cc1)c1c(N)n(Cc2ccccc2)c(=O)[nH]c1=O | -2.7 | -1 | -9 | -2 | -0.3 | -2.4%
CC(C)(C)n1nc(-c2ccc(F)cc2)c2c(N)ncnc21 | -1.8 | -18 | -20 | 2 | -0.4 | -0.4%

Shown as a hit in PINK1 modulator, among the entries above:
SMILES,D2 ag,D2 potentiator,TRPML1 blocker,Six1-Eya2 blk,PINK1 modulator
O=C(CSc1nc2ccccc2c(=O)n1Cc1ccccc1)NCc1ccco1,1.8,-7,0,1,5.6µM*
